# NPYLR7 agonist: mosquito NPYLR7 agonism; activation, % at 10 µM; 270,000 tested, 0.15% active; HEK293T NPYLR7/Galpha15, GCaMP6s calcium fluorescence; AID 1259423; in the data active = activation above about 40%;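 also: 0% = vehicle and 100% = reference agonist at the receptor; some compounds past the cut are filed as inactive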
# NPYLR7 agonist max-min: recorded beside NPYLR7 agonist, whose call it bears; activation, %; measured here: Max-Min RFU normalised activation; some inactives read as strong as hits;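 span of the calcium signal over five minutes; 0% = vehicle and 100% = native peptide agonist; compound fluorescence can raise it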
# Active calls of the source: *. Not all compounds are listed; rates above refer to the full screens.
# The line under a structure holds: NPYLR7 agonist max-min, NPYLR7 agonist
> Cc1ccc(Nc2nc(NCCc3ccccc3)nc3nccnc23)cc1C
  4, 4
> O=C(CCc1nc2ccccc2s1)NC1CCN(Cc2ccccc2)C1 (stereo not drawn)
  5, 16
> Cc1cnc2c(c1N1CCCCCC1)c(=O)n(C)c(=O)n2C
  -1, 3
> CC(C)c1ccc(CN2CCC2(C)C(=O)Nc2ccc(Cl)c(Cl)c2)cc1 (stereo not drawn)
  1, 4
> Cc1cc(C)cc(-n2ccnc2SCC(=O)Nc2ccc(S(=O)(=O)N3CCCC3)cc2)c1
  0, 1
> O=S(=O)(NCCn1cncn1)N1CCCC1c1ccco1 (stereo not drawn)
  9, 10
> CN(C)C(=O)C(C)(C)NC(=O)c1cc(I)c[nH]1
  -5, 0
> Cc1nnc(-c2cc3ccccc3n2CC(=O)Nc2ccc(C(F)(F)F)cc2)o1
  11, 17
> NC(=O)NCc1cn(C2CCN(Cc3cc4ccccc4s3)CC2)nn1
  -1, 2
> COC(=O)c1ccc(CN)cc1OC
  431, -3
> Cn1cnc2c1c(=O)n(CC(=O)N(Cc1ccco1)Cc1cccs1)c(=O)n2C
  1, 2
> Cc1ccccc1-n1c(-c2ccc(Cl)cc2)cc(C(=O)N2CCN(C(=O)c3ccc(F)cc3)CC2)c1C
  -17, -14
> CCOC(=O)N1CCC(N2CCC(N3CCC(C(=O)NC4CC4)CC3)CC2)CC1
  3, 6
> CN1CCN(c2nc3ccc(OC(=O)c4ccc([N+](=O)[O-])s4)cc3s2)CC1
  -3, -2
> O=C(COc1ccccc1)NC1CCN(c2ccccc2C(=O)N2CCOCC2)CC1
  23, 13
> N#Cc1ccc(S(=O)(=O)NC(=O)c2sccc2C2CC2)cc1
  3, 6
> Cc1ccoc1C(=O)NC(c1ccc(F)cc1)c1nccn1C (stereo not drawn)
  8, 2
> Cc1nccn1CCC1CCN(CCC(=O)Nc2cccnc2)CC1
  9, 13
> CCN(CC)C(=O)Oc1ccc2c(ccn2Cc2cc(Cl)ccc2Cl)c1-c1ccc(C#N)cc1
  1, 4
> O=C(NCc1ccco1)c1ccc(CSc2nnc(-c3ccccc3[N+](=O)[O-])n2Cc2ccccc2)cc1
  27, 12

# Quoted from the listing:
# CCOC(=O)N1CCC(N2CCC(N3CCC(C(=O)NC4CC4)CC3)CC2)CC1 in NPYLR7 agonist max-min = 3
# Cn1cnc2c1c(=O)n(CC(=O)N(Cc1ccco1)Cc1cccs1)c(=O)n2C in NPYLR7 agonist = 2

# Continued:
# The line under a structure holds: NPYLR7 agonist max-min, NPYLR7 agonist
> COc1ccc(-c2nn(CC(=O)NC3CCCCC3)c(=O)c3nc(C)sc23)cc1
  0, 3
> O=C(c1coc(CN2CCN(c3ccccc3F)CC2)n1)N1CCC[C@H]1CO
  -5, 1
> CC(=O)C1=C(C)NC(=O)NC1c1ccco1 (stereo not drawn)
  -5, -5
> COc1ccc(-c2ccc(NS(=O)(=O)c3cc(C)c(OC)cc3C)cc2)nn1
  -4, -4
> COc1ccc(-c2cnc(NC(C)=O)cn2)cc1OC
  0, 4
> CCCCCn1c(CN2CCCCC2)nc2c1c(=O)n(C)c(=O)n2C
  -15, -16
> S=c1[nH]nc(NCCc2ccccc2)s1
  6, 1
> O=S(=O)(N1CCCC1)N1CCC(c2nc3ccccc3[nH]2)CC1
  3, 10
> CCCN(Cc1ccc(C(O)(C=C(C)C)C=C(C)C)o1)Cc1cccc(OC)c1OC
  5, 3
> CCn1c(C)cc(O)c(C(c2cccs2)N2CCN(C)CC2)c1=O (stereo not drawn)
  4, 13
> C=CCOC(=O)C1C(C)=Nc2nc(SCC=C)[nH]c(=O)c2C1c1cccc(C)c1 (stereo not drawn)
  -8, -4
> Cc1ccc(C2Nc3ccccc3N=C3CC(c4ccccc4)CC(=O)C32)cc1 (stereo not drawn)
  -13, -10
> CC(C)CNCc1nccn1Cc1ccccc1Cl
  -8, -4
> COc1cccc(C2(C)NC(=O)N(Cc3c(C)noc3C)C2=O)c1 (stereo not drawn)
  3, 6
> Cc1cccc2[nH]c(CCN(C)C(=O)c3ccoc3)nc12
  11, 15
> FC(F)(F)C1CCCN(Cn2nc(-c3ccncc3)n(C3CC3)c2=S)C1 (stereo not drawn)
  1, 7
> CCS(=O)(=O)N1CCN(c2ccc(-n3nc(C)cc3C)nn2)CC1
  -10, -1
> Clc1ccc(Cc2nc(CSCc3ccco3)cs2)cc1Cl
  18, 12
> CCCSc1ncc(-c2nccn2Cc2cnn(CC)c2)cn1
  0, 4
> CCOC(=O)c1cnc(SCC(=O)N(C)c2ccccc2)nc1N
  7, -7
> O=C(CSc1nc2c(c(=O)n1-c1ccc(F)cc1)SCC2)OCc1ccccc1
  26, -1
> NC(=O)CC1CCCCN1CCC(=O)Nc1cc(F)cc(F)c1 (stereo not drawn)
  7, 7
> CCC(CC)C(=O)Nc1nnc(SCC(=O)Nc2ccc(Br)cc2)s1
  -13, -6
> COCC(=O)N1CCN(C(C(=O)Nc2ccc(C(C)C)cc2)C2CCCC2)CC1 (stereo not drawn)
  1, -2
> CN1CCc2c1nc1ccccc1c2N=C1CCCN1c1ccccc1
  -4, 0
> Cc1cc(C)n(-c2ccc(Nc3ccc(NC(=O)C(C)C)cc3)nn2)n1
  -11, -8
> Cc1cc(NC(=O)c2cc(=O)c3ccccc3o2)n(-c2nc(-c3ccc(F)cc3)cs2)n1
  -12, -10
> Cc1c(C(=O)Nc2cc(=O)n(C)c(=O)n2C)cccc1[N+](=O)[O-]
  7, 4
> Nc1nc(N)nc(CN2C(=O)CC3(CCCC3)C2=O)n1
  11, 3
> Cc1nn(C)c(C)c1NC(=O)CN1CCCCC1c1nc2ccccc2s1 (stereo not drawn)
  4, 9
> CCCNC(=O)CN(C)CC(=O)c1c(N)n(CCC)c(=O)[nH]c1=O
  12, 8
> Cc1ccc(S(=O)(=O)n2cc(/C=C/C(=O)N3CCCC3c3nnc4c(C(F)(F)F)cccn34)c3ccccc32)cc1 (stereo not drawn)
  -5, 0
> C[C@]12CCC3c4ccc(OC(=O)c5ccccc5)cc4CCC3C1CCC2=O (stereo partly drawn)
  -7, -3
> NS(=O)(=O)CCNC(=O)CC1CCC(c2ccccc2)CC1 (stereo not drawn)
  7, 10
> COc1ccc(C(=O)N(Cc2cccnc2)c2nc3c(F)cc(F)cc3s2)cc1
  -9, -8
> CCn1cc(NC(=O)Cc2noc3ccccc23)ccc1=O
  9, 11
> CC(C)c1cc(C(C)C)c(CC(=O)NS(=O)(=O)Oc2c(C(C)C)cccc2C(C)C)c(C(C)C)c1
  -8, -5
> O=C(NC1CCN(C(=O)c2cc3c(s2)CCCCC3)CC1)c1cccnc1
  -3, -2
> COC1CCN(C(=O)C(=O)Nc2ccc(Br)c(C(F)(F)F)c2)CC1
  -1, 0
> Cc1ccc(C(=O)NCCc2nnc3ccc(NCCCOC(C)C)nn23)cc1
  -12, -2

# Entries of single compounds from above.
# O=C(NC1CCN(C(=O)c2cc3c(s2)CCCCC3)CC1)c1cccnc1 is listed with NPYLR7 agonist max-min = -3; NPYLR7 agonist = -2
# Cc1c(C(=O)Nc2cc(=O)n(C)c(=O)n2C)cccc1[N+](=O)[O-] is listed with NPYLR7 agonist max-min = 7; NPYLR7 agonist = 4
# Cc1cc(C)n(-c2ccc(Nc3ccc(NC(=O)C(C)C)cc3)nn2)n1 is listed with NPYLR7 agonist max-min = -11; NPYLR7 agonist = -8

# The list continues.
# The line under a structure holds: NPYLR7 agonist max-min, NPYLR7 agonist
> CC(NC(=O)Cn1cnc2c1c(=O)n(C)c(=O)n2C)c1ccco1 (stereo not drawn)
  4, 0
> Cn1nc(CNCC2(O)CCCN(CC3CC3)C2=O)c2c(Cl)cccc21 (stereo not drawn)
  -3, 0
> CC(C)Cn1c(SC(C)C#N)nc2ccc(Br)cc2c1=O (stereo not drawn)
  -3, 0
> COc1ccc(S(=O)(=O)NCC2CCCO2)cc1N1CCN(C(=O)c2cccc(C#N)c2)CC1 (stereo not drawn)
  21, 3
> CCOC(=O)c1cc(C(C)CC(C)(C)C)sc1NC(=O)CCSC (stereo not drawn)
  0, 4
> CCOC(=O)c1c(NC(=O)CCN2C(=O)c3cccc([N+](=O)[O-])c3C2=O)sc2c1CCCC2
  -13, -5
> Cc1cc(N2CCN(c3ncccc3Cl)CC2)c(C#N)c(C)n1
  -8, 7
> COCCNS(=O)(=O)c1cc(C(=O)O)cc(-c2cc(F)ccc2F)c1
  -1, -1
> Cc1cccnc1-n1c(SC(C)C#N)nc2ccccc2c1=O (stereo not drawn)
  0, -1
> CCc1cc(N2CCN(C(=O)OC(C)(C)C)CC2)n2ncnc2n1
  4, 6
> Cc1cccc(C(C)(C)C)c1NC(=O)N[C@H](Cc1ccccc1)C(=O)N1CCC(C(=O)N2CCOCC2)CC1
  5, -3
> CCCN(CC(=O)Nc1cc(C(C)(C)C)nn1-c1ccc(Cl)cc1)C(=O)CCl
  14, 2
> CCCCN1C(=O)c2ccccc2NC12CCN(C(=O)/C=C/c1ccoc1)CC2
  13, 0
> Cc1cc(C)c(-c2c(-c3ccccc3)ncn2CC2(O)CCN(C)CC2)c(C)c1
  -7, -5
> Cc1cc(C(=O)Nc2cc(C)nn2-c2ccccc2)n(C)n1
  4, 1
> CCc1n[nH]c2c1CN(C(=O)c1cccc(-n3nc(C)cc3C)c1)CC2
  -1, 21
> COC(=O)C1(NC(=O)c2ccc(C(F)(F)F)cc2)CCS(=O)(=O)CC1
  6, 7
> O=C1CC2CS(=O)(=O)CC2N1c1ccccc1 (stereo not drawn)
  -2, 1
> COCCCNC(=O)CN(c1ccc(C)cc1)S(=O)(=O)c1ccc(OC)c(OC)c1
  -1, 3
> CC(=O)NCCn1ccnc1-c1c(C)n(C)n(-c2ccccc2)c1=O
  -6, -4
> Cc1cc(Cl)ccc1OCCCC(=O)NN=Cc1ccco1
  3, 4
> Cc1cc(C)c(C)c(OCc2nc(C(=O)O)cs2)c1
  15, 16
> CCOP(=O)(OCC)C(=C1C=C(C(C)(C)C)C(=O)C(C(C)(C)C)=C1)P(=O)(OCC)OCC
  -11, -9
> COC(=O)CCC(=O)N1CCOC(Cc2ccc(OC)cc2)C1 (stereo not drawn)
  1, 6
> NC(c1csc(Nc2ncccn2)n1)C1CCCCC1 (stereo not drawn)
  -1, -1
> O=C(N=C1N=C2C=CC(Cl)=CN2Cc2ccccc21)c1ccc(S(=O)(=O)N2CCOCC2)cc1
  -10, -3
> Cc1ccc(C)n1-c1ccc(C(=O)NCC(=O)N2CCN(CC(=O)N3CCCCC3)CC2)cc1
  6, 4
> COc1ccc(-c2nc(N(CCCN3CCOCC3)CCC(=O)NC3CC3)c3ccccc3n2)cc1
  37, 25
> Cc1ccc(-n2nnnc2CNC(=O)CC(c2ccccc2)c2ccccc2)cc1C
  9, 22
> CC12CCC(CC1=NN=Cc1ccc([N+](=O)[O-])cc1)C2(C)C (stereo not drawn)
  2, 4
> Cc1cc(OCC(=O)NNC(=O)Nc2ccccc2)cc(C)c1Cl
  -3, -2
> CC(C)CNC(=O)NC(=O)CSc1nnc(-c2ccncc2)n1Cc1ccccc1
  -9, -7
> CCCOc1ccc(NC(C)C(=O)NC(N)=O)c(C)c1 (stereo not drawn)
  -4, 0
> Cc1cc(C)n(CC(C)CNC(=O)Cn2ccc(=O)[nH]c2=O)n1 (stereo not drawn)
  -4, 1
> CC(=NNC(=O)OC(C)(C)C)c1ccc(Cl)s1
  -4, 0
> CC(C)S(=O)(=O)Oc1cccc(CN(Cc2ccc(F)cc2)C(=O)c2ccccc2Cl)c1
  0, -6
> Cc1ccsc1[C@@H]1CCN(Cc2cn[nH]c2C(=O)O)C[C@H]1O
  -5, -3
> CN1C(=CC=NNc2nc3ccccc3s2)C(C)(C)c2ccccc21
  5, 6
> CC(=O)N1CCC(N2CCC(CO)(Cc3ccccc3Cl)CC2)CC1
  9, 16
> O=C(CN1c2cccc3cccc(c23)S1(=O)=O)NNC(=O)c1ccccc1Br
  5, 7

# Some of the entries so far, with bars between the fields.
SMILES | NPYLR7 agonist max-min | NPYLR7 agonist
COCCNS(=O)(=O)c1cc(C(=O)O)cc(-c2cc(F)ccc2F)c1 | -1 | -1
CCCCN1C(=O)c2ccccc2NC12CCN(C(=O)/C=C/c1ccoc1)CC2 | 13 | 0
CCn1c(C)cc(O)c(C(c2cccs2)N2CCN(C)CC2)c1=O (stereo not drawn) | 4 | 13
Clc1ccc(Cc2nc(CSCc3ccco3)cs2)cc1Cl | 18 | 12
Cc1cccc(C(C)(C)C)c1NC(=O)N[C@H](Cc1ccccc1)C(=O)N1CCC(C(=O)N2CCOCC2)CC1 | 5 | -3

# Later entries
# The line under a structure holds: NPYLR7 agonist max-min, NPYLR7 agonist
> Cc1cc(C(=O)Cn2cnc3c2c(=O)n(C)c(=O)n3C)c(C)n1CC1CCCO1 (stereo not drawn)
  7, 7
> O=C(Cc1n[nH]c(=O)c2ccccc12)NCCc1ccc(Cl)cc1
  0, 2
> Cn1c(=NC(=O)C2=COCCO2)sc2c3ccccc3ccc21
  -1, 4
> CCn1c2ccccc2c2nnc(SCC(=O)N3CCCC3=O)nc21
  0, 3
> Cc1cc(NC(=O)C23CC4CC(CC(C4)C2)C3)n(-c2nc(C)c(C)c(=O)[nH]2)n1
  4, 11
> CC1Cc2ccccc2N1Cc1cc(=O)n2[nH]cnc2n1 (stereo not drawn)
  3, 6
> C=CCNC(=O)N1CC[C@H]2CC(=O)N(CCN3CCOCC3)CC[C@H]2C1
  -15, -9
> CC(Oc1ccc(F)cc1)C(=O)NCCCn1nc(-c2ccc(Cl)cc2)ccc1=O (stereo not drawn)
  -2, -2
> O=S1(=O)CCN2C(=N1)SC(c1cccs1)=C2c1cccs1
  0, 2
> COc1ccccc1C(=O)N(CCN(C)C)Cc1c(-c2cccc(C)c2)noc1N1CCOCC1
  6, 1
> Cc1nc(NC2CC2)sc1C(=O)N1CCCC1CC(C)(C)C (stereo not drawn)
  2, 2
> O=C(Cn1nc2ccc(SCc3ccc(Cl)cc3)nn2c1=O)NCc1ccccc1
  -1, 1

# Compound activity deposited in PubChem by Fisher Drug Discovery Resource Center.
